Assay outcomes (PubChem)
Yeast UUG start: modulators of yeast start codon fidelity, primary screen, whole organism, S. cerevisiae, single point, plate reader | AID 602363, 2012 | S. cerevisiae UUG-firefly luciferase reporter, luminescence/redox ratio | actives 0.13% (n = 350,000) | activity score, % at 18.7 µM;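 active = replicate mean at a twofold rise or more, about +100% in these data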;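 also: firefly luciferase made from a UUG start codon reports start codon fidelity; reporter light over untreated wells divided by growth signal over untreated wells; some hits fall short of that in this replicate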
Rce1 inhib: yeast Rce1p protease inhibitors, primary screen, biochemical, fluorescence, cell-free homogeneous; CAAX prenyl protease 2 (Saccharomyces cerevisiae (strain ATCC 204508 / S288c)), Q03530; yeast membranes, quenched prenylated peptide cleavage fluorescence; calls only; actives 0.27% (n = 290,000); AID 2563, 2010;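 active = fall in fluorescence gain of 50% or more versus controls, with final raw signal at or below 3038400; inconclusive = same 50% fall but final raw signal above 3038400; inactive = fall in fluorescence gain under 50%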;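 also: plate controls were neutral control wells for no effect and wells lacking membranes for full effect; tested at 10 µM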
Target sequence (Q03530 whole entry, looked up): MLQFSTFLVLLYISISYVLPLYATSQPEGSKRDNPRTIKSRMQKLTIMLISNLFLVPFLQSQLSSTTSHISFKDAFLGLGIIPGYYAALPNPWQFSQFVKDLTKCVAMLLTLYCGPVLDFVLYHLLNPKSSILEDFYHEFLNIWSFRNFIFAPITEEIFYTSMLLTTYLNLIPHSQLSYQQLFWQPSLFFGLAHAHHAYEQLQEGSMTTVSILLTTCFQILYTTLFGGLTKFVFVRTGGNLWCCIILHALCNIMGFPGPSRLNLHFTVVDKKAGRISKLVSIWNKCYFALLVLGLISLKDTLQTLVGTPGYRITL
PABP FP inh: PABP poly(A) RNA binding inhibitors, primary screen, biochemical, fluorescence polarization, uHTS. AID 2014, 2009. actives 1% (n = 290,000). Polyadenylate-binding protein 1 (Homo sapiens), P11940. inhibition, % at 35 µM;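 active = 50% or more with normal probe brightness, or confirmed in later tests; inconclusive = above 50% with abnormal brightness, or retests that disagree; inactive = below 50% or failed in later tests; about a fifth of its hits are not listed in these tables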;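 also: calls also rest on retests at 20 µM and on dose response follow-up; controls were probe without protein and protein plus probe with vehicle; some compounds called inactive have numbers as strong as hits; many hits fall short of the cut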
Target sequence (P11940 whole entry, looked up): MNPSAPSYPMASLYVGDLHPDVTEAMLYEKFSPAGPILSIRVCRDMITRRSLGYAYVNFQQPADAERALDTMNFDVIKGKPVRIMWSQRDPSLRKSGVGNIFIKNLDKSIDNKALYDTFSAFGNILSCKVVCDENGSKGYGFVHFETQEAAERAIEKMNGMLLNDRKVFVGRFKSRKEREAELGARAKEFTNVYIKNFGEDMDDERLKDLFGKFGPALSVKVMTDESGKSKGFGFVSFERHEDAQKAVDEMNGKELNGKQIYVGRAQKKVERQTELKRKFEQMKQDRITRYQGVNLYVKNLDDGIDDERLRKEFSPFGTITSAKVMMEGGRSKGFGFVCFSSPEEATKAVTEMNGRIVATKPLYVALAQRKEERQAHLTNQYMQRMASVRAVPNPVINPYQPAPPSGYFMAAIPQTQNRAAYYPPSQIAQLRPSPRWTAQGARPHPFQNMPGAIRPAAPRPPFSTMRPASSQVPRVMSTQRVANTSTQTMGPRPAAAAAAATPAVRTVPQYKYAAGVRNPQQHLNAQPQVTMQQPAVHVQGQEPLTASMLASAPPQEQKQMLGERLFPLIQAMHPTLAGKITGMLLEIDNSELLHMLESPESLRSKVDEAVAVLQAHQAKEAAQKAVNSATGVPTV
MT1-MMP act inh: blockers of MT1-MMP proenzyme processing, primary screen, HT1080 RFP-PRO-GFP cells, GFP/RFP fluorescence; GFP/RFP ratio fluorescence, overnight; percent of plate control window, DMSO zero; GFP/RFP ratio change, % at 20 µM; actives 0.061% (n = 360,000);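 active = GFP/RFP ratio change of at least 30% with cell ATP level not reduced by more than half and red fluorescence within 50% of control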; also: strong numbers were not always called active
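Assay system: HT1080 cells carrying an RFP-PRO-GFP reporter | Dosing: Single dose of 20 µM compound, 1% DMSO final | Incubation: Cells overnight before dosing, compound overnight, 37 °C, 5% CO2 | Evaluation: GFP/RFP fluorescence ratio | Control set: DMSO and RFP-L50D-GFP cell wells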
CSC inhib: cancer stem cell viability inhibitors, primary screen, luminescence; inhibition, % at 7.5 µM; actives 1.1% (n = 300,000); cancer stem cell-like cells viability;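 active = mean at 75% or more and at least half the replicates too; inconclusive = mean and replicates disagree; tested in HMLE shEcad cells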;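 also: 0% = median of negative and 100% = median of positive control wells; the first replicate is given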
HIV Env fusion: inhibitors of HIV-1 Env-driven cell-cell fusion, primary screen, HeLa-JRFL effector, CEM21 target cells, luciferase | inhibition, % at 12.3 µM | AID 651610, 2012 | actives 1.1% (n = 360,000);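 active = mean replicate inhibition score of at least 50 and every replicate individually at or above 50; inconclusive = only one of the two criteria met; inactive = mean below 50 and not all replicates reaching 50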;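 also: 0% = plate neutral controls and 100% = maraviroc near 300 nM; one replicate is shown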
eIF4H FP inh: human eIF4H binding inhibitors, primary screen, translation initiation inhibitor project, biochemical, uHTS, fluorescence polarization; Eukaryotic translation initiation factor 4H (Homo sapiens), Q15056; actives 0.94% (n = 290,000); eIF4H fluorescence polarization binding assay; inhibition, % at 35 µM;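 active = 50% or more with normal probe brightness, or confirmed in later tests; inconclusive = above 50% with abnormal brightness, or retests that disagree; inactive = below 50% or failed in later tests; about a fifth of its hits are not listed in these tables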;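 also: calls also rest on retests at 20 µM and on dose response follow-up; 0% = protein and probe with vehicle and 100% = probe without protein; strong numbers were not always called active; many hits fall short of the cut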
eIF4H FP inh retest: recorded beside eIF4H FP inh, whose call it bears; inhibition, %; compound at 20 µM; confirmation average;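 mean of two retest wells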
PABP FP inh retest: also measured in PABP FP inh; calls as there; inhibition, %; compound at 20 µM; confirmation repeats;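 mean of two retest wells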
MT1-MMP act inh RFP: recorded beside MT1-MMP act inh, whose call it bears; RFP signal change, %; measured here: RFP expression control read;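 0 = vehicle wells; hits needed this value within 50% of zero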
* hit, by the source's call; i = inactive; ? = inconclusive; . = no result given.

SMILES	Yeast UUG start	Rce1 inhib	PABP FP inh	MT1-MMP act inh	MT1-MMP act inh RFP	CSC inhib	HIV Env fusion	eIF4H FP inh	others
O=C(NNc1c2ccccc2nc2ccccc12)C(O)c1ccccc1 (stereo not given)	-8	i	2	-11	-16	-8	5	-10
CC1CCN(C(=O)NC(=O)c2ccccc2)CC1	0	i	-5	-1	3	-8	-7	-4
CN(C)c1ccc(-c2ccnc3c2CC(C)(C(=O)Nc2ccc(F)c(Cl)c2)O3)cc1 (stereo not given)	-12	.	.	-2	1	.	7	.
CC(OC(=O)c1cc(Br)ccc1O)C(=O)NC1(C#N)CCCCC1 (stereo not given)	5	i	.	-5	-4	-5	0	.
O=C(NCc1ccco1)C(=O)NCC1OCCN1S(=O)(=O)c1ccccc1 (stereo not given)	-22	i	-2	0	6	5	-2	56	eIF4H FP inh retest=1;PABP FP inh retest=10
Cc1ccc(-n2c(=O)[nH]cc(C(=O)N3CCc4ccccc43)c2=O)cc1C	-15	i	16	4	4	2	-7	-3
COc1ccc(-n2c(=O)/c(=C\c3cccs3)s/c2=C(/C#N)C(=O)N2CCN(C)CC2)cc1	.	i	-7	7	-5	-11	3	-9
Cc1ccc(NC(=O)c2ncn(CCCN[C@H](C)c3cccc4ccccc34)n2)cc1C	-9	.	.	-1	-4	.	-23	.
COc1ccc(C(=O)Nc2ccc(N3CCN(C)CC3)cc2)cc1OC	3	.	4	1	2	-5	-6	-6
COc1cc(NC(=O)c2cc(-c3cc(F)ccc3OC(C)C)n[nH]2)cc(OC)c1OC	-6	.	.	4	-7	.	20	.
C/C(N)=C(/C#N)C(=O)COC(=O)CC12CC3CC(CC(C3)C1)C2	-16	i	11	-2	-2	-8	.	7
CCn1c(=O)cc(SCC(=O)N2CCN(Cc3ccc4c(c3)OCO4)CC2)c2ccccc21	22	i	8	3	0	-6	12	-4
Cn1c2c(c(=O)n(C)c1=O)C(CC(=O)Nc1ccccc1F)C(=O)N2 (stereo not given)	-10	i	0	-1	2	-3	-10	1
COC(=O)C1=C(C(=O)OC)C2C=CC1C1C(OC(C)=O)C(OC(C)=O)C21 (stereo not given)	-6	.	.	0	-3	.	-6	.
N#C/C(=N\Nc1ccc(S(=O)(=O)N2CCCCCC2)cc1)C(N)=S	.	i	4	-1	-17	36	16	0
CCCCCCC(C)n1[nH]c(=O)c2c(C)cc(C)nc21 (stereo not given)	.	i	6	-1	-2	-17	-1	-9
CCCCOc1ccc(C(=O)O)cc1	-16	i	-10	4	5	.	.	6
COc1ccccc1N1CCN(C2CCCN(C(=O)c3cc(C4CC4)on3)C2)CC1 (stereo not given)	-3	i	-1	0	1	18	4	6
COc1ccccc1N(CC(=O)NC1CCCCC1)C(=O)c1csnn1	-8	i	2	0	-1	-11	-41	4
CCCc1ccc2oc(C(=O)NCCc3nc(C(=O)OCC)cs3)c(C)c2c1	-5	i	-2	1	-3	.	-26	-13
CCOC(=O)c1c(NC(=S)NNS(=O)(=O)c2ccc(Br)cc2)sc2c1CCCCC2	4	i	12	-1	0	-26	10	54	eIF4H FP inh retest=7;PABP FP inh retest=9
COc1ccc(F)cc1S(=O)(=O)Nc1ccc2c(c1)OCCO2	-16	i	6	1	-4	10	-6	-10
CCCCc1cc(=O)oc2cc(OCc3cc(OC)c(OC)c(OC)c3)c(Cl)cc12	-7	i	13	1	0	-6	-57	-11
COC(=O)c1[nH]c2ccc(Cl)cc2c1NC(=O)CCN1CCN(C2CCCCC2)CC1	-16	i	10	0	-5	-6	-23	-5
Cc1cc(C)nc(SCc2cc(=O)c(OC(=O)c3cccc([N+](=O)[O-])c3)co2)n1	-7	i	-14	8	11	-21	.	2

The list goes on, starting with the last 2 of the part before.
SMILES	Yeast UUG start	Rce1 inhib	PABP FP inh	MT1-MMP act inh	MT1-MMP act inh RFP	CSC inhib	HIV Env fusion	eIF4H FP inh	others
COC(=O)c1[nH]c2ccc(Cl)cc2c1NC(=O)CCN1CCN(C2CCCCC2)CC1	-16	i	10	0	-5	-6	-23	-5
Cc1cc(C)nc(SCc2cc(=O)c(OC(=O)c3cccc([N+](=O)[O-])c3)co2)n1	-7	i	-14	8	11	-21	.	2
CN(C)S(=O)(=O)c1ccc(C(=O)Nc2ccc(CCC(=O)N3CCCC3)cc2)cc1	.	i	-4	2	-3	.	.	0
CCOP(=O)(Cc1ccc(C(C)(C)CC(C)=O)o1)OCC	-4	i	5	-1	-1	11	-77	0
Cc1ccc(NC(=O)COC(=O)Cn2nc(-c3ccc(F)cc3)oc2=O)cc1C	-16	.	.	2	0	-3	9	.
COCCCNC(=S)N(Cc1ccccc1)Cc1nc2ccccc2c(=O)[nH]1	-14	i	-2	-2	4	-11	.	-2
CC(C)C(=O)NNS(=O)(=O)c1ccccc1	.	i	6	-1	1	-25	13	-2
COCCCNC(=O)CN1C(=O)COc2ccc(S(=O)(=O)N3CCCCCC3)cc21	-6	i	6	-3	3	.	3	-11
CC1CCCN(S(=O)(=O)c2ccc(Br)s2)C1 (stereo not given)	-4	i	3	-1	6	-12	-15	-5
CCOC(=O)c1ccc(NC(=O)CSc2nc(=O)n(CCN3CCOCC3)c3c2CCC3)cc1	-3	i	.	-3	-4	12	4	.
CCOC(=O)N1CCN(c2c(N3CCN(c4ccccn4)CC3)c(=O)c2=O)CC1	-16	.	-4	2	1	-2	24	6
NS(=O)(=O)c1ccc(NC(=S)N2CCN(c3ccccc3Cl)CC2)cc1	.	i	3	7	-11	.	.	4
c1ccc(SCCOCCn2cncn2)cc1	-14	i	24	-2	4	0	.	-5
O=C(COC(=O)/C=C/c1ccc(F)cc1)Nc1cc(C(F)(F)F)ccc1N1CCOCC1	.	i	-9	0	2	-2	-9	-1
Brc1cc2c(cc1COc1ccc(-c3nn[nH]n3)cc1)OCO2	-7	i	27	1	5	-13	.	-6
COCCCNC(=O)Cn1cc(/C=C(\C#N)C(=O)NC2CC2)c2ccccc21	-25	i	10	-4	-3	-11	10	-7
CN(C)c1ccc(C(=O)c2ccc(N(C)C)c(N)c2)cc1N	-51	i	-13	5	0	39	.	2
NS(=O)(=O)c1ccc(CCNC(=O)CN2CCN(Cc3cccc4ccccc34)CC2)cc1	-11	i	12	3	-5	-12	5	-15
COCCCN(Cc1cccs1)S(=O)(=O)c1c[nH]c(C(=O)OC)c1	-6	i	13	-2	0	7	-2	1
CC1=NN(c2cccc(C(=O)O)c2)C(=O)/C1=C\C=C/c1ccccc1	.	.	-10	7	-4	.	-188	-2
CC1CCCN(C(=O)CCS(=O)(=O)c2ccc3c(c2)NC(=O)C(C)S3)C1 (stereo not given)	3	i	0	3	2	4	.	-9
CCOC(=O)c1c(C)[nH]c(C(=O)OC(C)C(=O)NCc2ccccc2)c1C (stereo not given)	-15	i	.	-1	-9	-1	18	.
N/C(Cc1ccc(Cl)cc1)=N\OC(=O)c1cccc2ccccc12	.	i	-7	5	-1	5	.	-7
C(=N\NC(=Nc1ccccc1)c1ccccn1)/c1ccccn1	.	i	-7	3	1	31	-33	-12
Cc1cc(=O)n2nc(N3CCCC(C(=O)NCc4ccc5c(c4)OCO5)C3)sc2n1 (stereo not given)	-13	i	5	1	6	14	.	-1
CCOC(=O)C1CCN(S(=O)(=O)c2cc(C(=O)OC)n(C)c2)CC1	-7	i	-7	2	-2	-7	-1	-14
COC(=O)c1ccc(Cl)c(NS(=O)(=O)c2ccc3c(c2)OCCO3)c1	-16	i	5	-3	-5	41	-19	0
SMILES	Yeast UUG start	Rce1 inhib	PABP FP inh	MT1-MMP act inh	MT1-MMP act inh RFP	CSC inhib	HIV Env fusion	eIF4H FP inh	others
NC(=O)c1c(NC(=O)c2cnccn2)sc2c1CCCC2	.	i	0	0	1	-7	-32	-8
Nc1ccc(-c2nc3ccc(N)cc3s2)cc1	-66	?	6	1	-4	25	-57	2
CCN(CC)C(=O)Nc1cnc2ccccc2c1	-5	i	14	-2	2	.	.	1
C[C@@H](C(=O)OCn1nnc2ccccc2c1=O)N1C(=O)C2CCCCC2C1=O (stereo not given in full)	-11	i	6	-3	0	-6	12	0
COC(=O)c1ccc(-c2ccc(F)cc2)nc1C	-32	i	8	-3	0	-4	.	6
COc1ccc(C(=O)C(c2ccccc2)N2CCOCC2)cc1 (stereo not given)	-17	i	9	-3	0	-9	.	3
CCOC(=O)N1CCN(C(=S)NC(=O)c2cccc(OC)c2)CC1	-11	.	.	2	2	-12	.	.
COCCN(C(=O)C1CCN(C(=O)c2ccccc2C)CC1)c1c(N)n(CC(C)C)c(=O)[nH]c1=O	-17	.	.	1	2	.	-5	.
CC(=O)NCCC(=O)N1CCc2c([nH]c3ccccc23)C1c1cccc(C)c1 (stereo not given)	13	i	-6	-2	-1	-4	-21	-7
S=C(NCc1ccccn1)Nc1ccc(Cl)c(Cl)c1	.	i	9	7	3	-10	.	3
Cn1c(=O)c2c(ncn2CC(=O)N/N=C/c2ccco2)n(C)c1=O	.	i	-4	-4	-2	-8	-4	-10
CNc1ccc(Br)cc(C(=O)/C=C/c2ccc(OC)cc2OC)c1=O	4	i	5	-6	7	-11	2	40
Cc1ccc(-n2c(O)c(/C=C3/C(c4ccccc4)=Nc4ccccc43)c(=O)[nH]c2=O)cc1	.	i	-1	-8	-10	57	-113	?
C[C@@H]1COC(=O)[C@@H](CC(=O)OC(C)(C)C)C/C=C\C[C@@H](CC(=O)N[C@@H](CO)Cc2ccccc2)C(=O)N1	6	.	.	-1	2	.	-5	.
Cc1ccc(NC(=O)C2=C(O)c3ccccc3N(C)S2(=O)=O)cc1	-24	i	7	2	3	-10	-16	13
Cc1cc(C)n(-c2nnc3c4ccccc4n(C)c3n2)n1	-21	i	-6	3	2	2	-117	-13
COc1ccc(NC(=S)N/N=C2\CC(C)(C)Oc3ccc(O)cc32)cc1	.	i	6	4	-2	61	-3	2
NS(=O)(=O)c1ccc(CCNC(=O)c2ccc(Cl)c(S(=O)(=O)N3CCCCCC3)c2)cc1	-9	.	.	8	-31	.	8	.
CC1(C)CC(=O)c2c(O)cc(OCC(=O)NCCc3ccc(S(N)(=O)=O)cc3)cc2O1	-1	i	11	2	-4	-3	.	4
CN(CCN1CCOCC1)C(=O)c1cc(COc2ccc(F)cc2Cl)on1	-18	.	.	0	0	.	-4	.
COc1ccccc1-c1ccc(SCC(=O)NC2CCCCC2)nn1	27	i	0	1	-2	-17	-37	0
CN(CC(=O)NCc1ccc(Cl)cc1)S(=O)(=O)c1cccc2nsnc12	-7	i	5	1	1	.	3	1
COc1ccc(C(=O)Nc2ccnn2C2CCN(Cc3ccncc3)CC2)cc1	-6	i	-4	0	3	0	0	1
CCCCn1c(=O)n(CC(=O)Nc2c(CC)cccc2CC)c(=O)c2c1nc(CO)n2CCC	-13	i	-1	-2	5	-7	.	-7
COC(=O)[C@H](C)NC(=O)Nc1ccc(OC(F)(F)F)cc1	-7	i	-5	1	7	1	.	-7
COc1cccc(NC(=O)CSc2ccc(-c3ccco3)nn2)c1	-14	i	15	0	-8	0	0	-3
